Bfl-1 A1 inh: inhibitors of the anti-apoptotic protein A1, read as caspase activation. caspase activation, % (concentration not given with the values). 330,000 tested, 0.066% active. AID 2462. MEF A1-2A-BIM cells, Caspase-Glo 3/7 luminescence, 3 h; percent of clofoctol response, vehicle zero;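 active means over half of replicate activation scores above 10%, or exactly half above 10 with the replicate mean above 10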;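 further: wells of about 30 µL received 50 nL stock; many hits fall short of the cut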
Ecoli growth: inhibitors of Escherichia coli growth. OD600, 23 h; stronger effect = lower value. OD600 absorbance (no concentration beside the values). 330,000 tested, 0.21% active;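 active means OD600 absorbance below the run mean of sample wells minus 3.6 SD, in any replicate, cut at about 0.56 in these data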;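 further: stock transfer was 300 nL into about 60 µL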
rRNA inh HTS: selective bacterial rRNA inhibition in E. coli; E. coli WT GFP vs humanized-ribosome RFP mutants, fluorescence, 24 h; stronger effect = lower value; DMSO median 0, no signal -100; GFP signal change (wild-type ribosome), % (test concentration not listed); 350,000 tested, 1.6% active; AID 720706;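 active means significant combined selectivity score with lowered wild-type GFP, culture density cut under 30%, mutant RFP and density less affected; inactive means any of these conditions unmet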; further: one replicate is shown; some compounds called inactive have numbers as strong as hits
AF4-AF9 inh: blocks AF4 peptide binding to human AF9. P42568. AlphaScreen, biotin-AF4 peptide binding to FLAG-AF9. inhibition, % at 10 µM. 350,000 tested, 0.47% active;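 active means every replicate reaching a set inhibition limit, whatever the replicate mean, cut at about 25% in these data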;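 further: 0% = plate neutral control median and 100% = total signal loss; the record names both 10 and 1 µM as test concentration; the first replicate is given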
Target sequence (P42568 whole entry, looked up): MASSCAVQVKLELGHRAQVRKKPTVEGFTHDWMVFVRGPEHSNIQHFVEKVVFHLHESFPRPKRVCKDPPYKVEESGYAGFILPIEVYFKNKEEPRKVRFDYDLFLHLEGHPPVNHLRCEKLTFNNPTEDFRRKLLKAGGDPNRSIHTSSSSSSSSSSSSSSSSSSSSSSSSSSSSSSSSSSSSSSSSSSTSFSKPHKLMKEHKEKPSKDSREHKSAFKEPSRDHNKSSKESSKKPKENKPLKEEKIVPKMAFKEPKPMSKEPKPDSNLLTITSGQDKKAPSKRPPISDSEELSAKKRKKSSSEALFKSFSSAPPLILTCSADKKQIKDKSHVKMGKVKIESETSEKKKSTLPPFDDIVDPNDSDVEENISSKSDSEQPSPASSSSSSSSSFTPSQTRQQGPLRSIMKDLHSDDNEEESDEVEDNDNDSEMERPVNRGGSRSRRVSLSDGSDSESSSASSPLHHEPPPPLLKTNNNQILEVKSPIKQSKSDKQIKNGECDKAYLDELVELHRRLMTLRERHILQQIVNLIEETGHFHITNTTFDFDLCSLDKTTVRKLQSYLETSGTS
FGF22 binding: FGF22 (human) thermal shift binding. Q9HCT0. recombinant FGF22 thermal shift, SYPRO orange fluorescence; percent of sucrose octasulfate shift, DMSO zero. calls only at 9.99 µM. 340,000 tested, 1.5% active. AID 651658;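 active means melting point raised past a set limit in the mean and every replicate; three in four hits are not shown here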
Target sequence (Q9HCT0 whole entry, looked up): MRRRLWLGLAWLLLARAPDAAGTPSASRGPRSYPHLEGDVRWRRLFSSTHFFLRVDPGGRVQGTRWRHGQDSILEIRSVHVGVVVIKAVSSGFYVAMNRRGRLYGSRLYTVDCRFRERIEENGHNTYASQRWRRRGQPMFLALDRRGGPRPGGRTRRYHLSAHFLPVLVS
Beta cell apopt: beta cell apoptosis inhibition; INS-1E cytokine-induced death, ATP luminescence, 48 h; percent of positive-control rescue, neutral wells zero; protection from apoptosis, % (test concentration not listed); 300,000 tested, 0.8% active; AID 435005;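 active means all replicates at 75% or more, or half of them and the mean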;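 further: 0% = cytokine-treated negative control wells and 100% = positive control rescue; higher means more ATP so stronger rescue from cytokine killing; wells of about 40 µL received 100 nL stock; the first replicate is given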
T cruzi repl: T. cruzi replication inhibition. inhibition, % (concentration not given with the values). T. cruzi beta-gal in NIH3T3, luminescence, 90 h. 300,000 tested, 1.4% active;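 active means mean inhibition across valid replicates above about 55%, limit read from the data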;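 further: signal also drops with host cell toxicity which is not excluded here; 0% = plate median of DMSO wells and 100% = zero luminescence signal; higher percent means less beta-gal luminescence so fewer parasites; stock transfer was 50 nL into about 50 µL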
UCH37 inh: human UCH37 deubiquitinating enzyme inhibition; Q9Y5K5; inhibition, % (concentration not given with the values); purified proteasome/UCH37, Ub-AMC cleavage fluorescence; 330,000 tested, 0.33% active;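 active means mean of two replicates above 20%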;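 further: 0% = compound-free wells with enzyme and 100% = wells lacking proteasome; stock transfer was 100 nL into about 20 µL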
Target sequence (Q9Y5K5 whole entry, looked up): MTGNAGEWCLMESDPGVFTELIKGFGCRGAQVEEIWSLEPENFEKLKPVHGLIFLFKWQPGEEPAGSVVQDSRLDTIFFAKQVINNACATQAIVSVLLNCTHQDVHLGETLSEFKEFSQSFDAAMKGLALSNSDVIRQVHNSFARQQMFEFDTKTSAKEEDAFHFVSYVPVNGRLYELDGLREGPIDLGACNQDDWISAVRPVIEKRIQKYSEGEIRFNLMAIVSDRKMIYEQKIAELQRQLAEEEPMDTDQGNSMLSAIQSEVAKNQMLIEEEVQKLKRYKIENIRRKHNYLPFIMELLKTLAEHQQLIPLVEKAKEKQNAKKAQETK
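Material: human UCH37 enzyme supplied as purified proteasome complex / Amount: 0.15 nM proteasome as dispensed / Buffer or medium: pH 7.4 Tris-HCl (50 mM) with ovalbumin, ATP-MgCl2, DTT / Times: preincubation 30 min, reaction 25 min, room temperature / Technique: AMC fluorescence from Ub-AMC cleavage, excitation 355 nm, emission 460 nm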
rRNA inh HTS OD600: second read-out of rRNA inh HTS, no call of its own (marks repeat the call); OD600 change, %; measured here: OD600 growth;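 optical density of the mix in the first replicate; 0 = DMSO median and -100 = no signal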
rRNA inh HTS RFP: second read-out of rRNA inh HTS, no call of its own (marks repeat the call); RFP signal change, %; measured here: RFP humanized mutant strains;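 first replicate; 0 = DMSO median and -100 = no signal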
The depositor's hits bear a star; i = inactive; . = no result given. These rows are one share of the data (hit frequency here may not be typical).

SMILES	Bfl-1 A1 inh	Ecoli growth	rRNA inh HTS	rRNA inh HTS OD600	rRNA inh HTS RFP	AF4-AF9 inh	FGF22 binding	Beta cell apopt	T cruzi repl	UCH37 inh
CCOC(=O)c1[nH]c2cc3c(cc2c1NC(=O)CN1CCc2ccccc2C1)OCO3	0.1	0.675	.	.	.	.	.	9.4	18.0	-67.6
O=C(O)Cn1nc(-c2ccccc2)ccc1=O	1.3	0.653	7.5	8.6	-1.7	-8.4	i	-4.9	-12.1	3.7
O=S(=O)(c1ccc(SCCOc2cccc(Br)c2)nc1)N1CCCC1	-1.1	0.715	3.2	-5.8	1.7	-0.1	i	3.3	.	4.4
C/C(=N\NC(=O)c1cc(C)[nH]n1)c1ccc(-c2ccccc2)cc1	0.4	.	3.8	3.0	-2.1	-9.4	i	6.7	-11.5	.
Cc1ccccc1-c1nc(CS(=O)(=O)CC(=O)NC2CCCCC2C)c(C)o1 (stereo not given)	-0.3	0.668	-2.0	-0.8	0.3	-1.9	i	-1.3	2.3	3.5
CCN(CC)C(=O)c1c(-c2ccccc2)oc2ccc(OC)cc12	0.1	0.7	-2.9	2.4	-2.1	-0.8	i	-2.7	2.2	-7.9
Cc1nc2ccccc2n1Cc1ccc(Cl)cc1	-0.4	0.62	.	.	.	-7.7	i	71.0	-19.0	3.2
C=C(C)CNC(=S)Nc1cccc(N)n1	.	0.698	6.4	5.5	2.7	-3.6	i	.	-12.6	3.1
COc1cc(OC)cc(C(=O)N2CCN(C(=O)COc3ccc4ccccc4c3)CC2)c1	1.8	0.707	.	.	.	.	.	10.6	21.7	6.1
Cc1cccc(C)c1NC(=O)C1(NC(=O)c2cnccn2)CCCCC1	0.3	0.722	2.8	5.0	-4.4	-8.0	i	.	-11.2	6.9
NS(=O)(=O)c1ccc(NC(=O)COC(=O)CCNC(=O)NC23CC4CC(CC(C4)C2)C3)cc1	-0.9	0.696	.	.	.	.	.	-4.8	-5.1	0.7
NC(=O)c1nsc(C(=O)N(c2ccccc2)C(C(=O)NC2CCCCC2)c2ccc(O)cc2)c1N (stereo not given)	0.6	0.631	4.1	-2.9	-1.9	4.4	i	13.7	-6.5	-30.1
O=C(c1cc(COc2ccc(F)cc2Cl)on1)N1CCc2ccccc2C1	-0.9	0.734	7.7	1.6	-10.1	-2.5	i	-2.2	-11.3	1.2
CC1=C(C(=O)OCc2ccccc2)C(c2cccc(F)c2)NC(=O)N1 (stereo not given)	-1.9	0.64	-9.3	-14.3	-0.6	0.4	i	-0.7	-5.3	2.5
Cc1ccc(C)c(NS(=O)(=O)c2cc(C(=O)NCC3CCCO3)ccc2C)c1 (stereo not given)	0.2	0.715	-1.4	-12.5	2.1	-1.1	i	0.1	13.3	3.8
N#Cc1ccc(C23CC4(C2)[C@H](CN(Cc2ccc(C(F)(F)F)cc2)[C@@H]4c2ccccc2)C3c2ccc(C(F)(F)F)cc2)cc1 (stereo not given in full)	-1.3	.	.	.	.	-3.3	i	9.7	3.5	.
CCCn1c(SCC(=O)Nc2ccc(S(=O)(=O)N(C)C)cc2)n[nH]c1=O	0.3	0.691	1.5	-1.9	0.0	1.3	i	-0.7	-13.5	0.3
CCOC(=O)Cc1csc(N/N=C/c2cccc([N+](=O)[O-])c2)n1	-0.4	.	4.8	12.8	0.2	-1.8	i	3.8	43.1	.
COc1cc(C)c(C(=O)Oc2cc(C)c(C(=O)O)c(O)c2C)c(O)c1C(=O)O	0.2	0.7	.	.	.	-2.7	.	-2.3	-11.0	2.7
CC1CN(Cc2nc3c(c(=O)n(C)c(=O)n3C)n2CCCO)CC(C)O1 (stereo not given)	-0.5	0.714	.	.	.	.	.	.	-3.8	4.2
Cc1ccc(SCC(=O)Nc2ncc(C)s2)cc1	0.9	0.697	.	.	.	.	.	-2.0	-1.3	0.2
CS(=O)(=O)N(CC(=O)NC1CC2CCC1C2)c1ccc(Oc2ccccc2)cc1 (stereo not given)	-0.5	0.728	4.6	7.3	1.3	-1.8	i	-2.1	0.5	1.6
O=C1C(=O)N(CCO)C(c2ccccc2[N+](=O)[O-])/C1=C(\O)c1ccccc1 (stereo not given)	-2.4	0.653	9.2	9.7	1.5	-7.0	i	-1.2	6.2	6.8
CCOc1ccccc1-n1nnnc1SCC(=O)NCc1ccco1	-0.1	0.666	6.7	-1.6	0.3	-0.5	i	-0.6	-17.7	0.6
O=C(Cc1cccs1)N(c1ccccc1)C1C=CS(=O)(=O)C1 (stereo not given)	-0.4	0.708	6.6	5.7	1.5	2.7	i	-0.8	-12.7	1.5
CC(Sc1nnc(-c2ccncc2)n1C)C(=O)Nc1nccs1 (stereo not given)	0.2	0.65	4.4	-2.8	-2.6	0.0	i	-0.6	-18.7	2.0
Cc1ccc(/C=N/NC(=O)C[n+]2ccccc2)s1	-0.2	.	15.1	10.3	-1.1	-2.0	i	-0.1	-8.3	.
O=C(Nc1cnccn1)c1ccc(Cl)cc1	-2.0	0.659	7.2	13.8	1.3	-0.6	i	-4.8	-7.6	0.9
COc1ccc(C(CNC(=O)c2ccccc2C)N2CCCC2)cc1 (stereo not given)	-0.2	0.722	.	.	.	.	.	-4.0	1.6	-0.8
Oc1c(Br)cc(/C=N/NC(=S)NCC2CCCO2)cc1Br (stereo not given)	-0.1	.	-32.6*	-2.3*	0.2*	5.6	i	-1.1	0.2	.
N#CCCn1cc(C(=O)O)c(-c2cccs2)n1	-0.7	0.681	14.7	9.3	0.9	-0.5	i	-4.5	-1.7	3.2
COc1ccc(-c2c[n+]3c(n2-c2ccccc2)SCC3)cc1	-1.0	0.667	-0.1	13.9	-1.2	.	i	.	61.2*	1.1
CCC(CC)c1nc2cc(OC)c(OC)cc2c(=O)o1	0.8	0.762	.	.	.	.	.	-0.2	-19.0	-1.4
CSc1ccccc1NC(=O)CN(C)C(=O)COc1cccc2cccnc12	-1.0	0.667	.	.	.	0.0	i	-4.0	.	-1.8
CCCCNC(=O)C1CCC(CNc2nc(=S)[nH]c3ccccc23)CC1 (stereo not given)	-0.1	0.723	7.3	10.1	-0.5	-5.5	i	7.5	8.6	-2.2
CC(C)CCNC(=O)c1cn(CC(C)C)c(=O)c2c1c1ccccc1n2C	0.4	0.679	13.1	4.2	-3.7	-0.4	i	-13.2	19.6	-23.8
COc1ccc(/C(N)=N/OC(=O)c2ccco2)cc1OC	-7.1	.	-1.5	1.4	0.5	0.1	.	-6.9	-14.9	-2.0
CCCOc1ccc(N2C(=O)CC(NCc3ccncc3)C2=O)cc1 (stereo not given)	0.5	0.704	.	.	.	.	.	-0.9	1.4	3.0
CN(Cc1ccccc1)C(=O)COC(=O)COc1ccc(Cl)cc1	-0.3	0.708	.	.	.	-1.9	i	-7.3	.	3.4
CCOC(=O)Cn1c(=O)oc2cc(S(=O)(=O)NCc3cccs3)ccc21	-0.4	0.749	1.9	-3.8	-4.9	-3.3	i	-0.6	-3.4	6.8
CCNc1nc(CN2CCOCC2)nc2sc3c(c12)CCC3	2.1	0.706	.	.	.	.	.	-14.0	-1.0	-7.4
CC(=O)Nc1ccc(S(=O)(=O)NCc2nc(-c3cccc(C)c3)no2)cc1	0.7	.	2.6	4.5	1.4	-1.2	i	-0.1	10.0	.
CCOC(=O)c1c(-c2ccc(C)o2)csc1NC(=S)NC(=O)N(C)C	1.5	0.742	.	.	.	.	.	4.1	1.9	7.3
Cc1ccc(N=C(N)N=C(N)N)cc1	0.6	0.625	2.9	2.0	1.0	1.6	i	-0.9	-1.4	4.5
COc1ccc(OC)c(S(=O)(=O)N/N=C\c2cn(CC(N)=O)c3ccccc23)c1	0.0	.	8.3	1.7	0.6	-3.5	i	-2.3	1.7	.
NC(=O)CCn1c(C(=O)c2cc(Cl)c(N)c(Cl)c2)c2ccccc2[n+]1[O-]	-0.4	0.697	-1.0	-12.1	-0.6	-0.3	i	-8.8	-5.3	5.3
O=C(O)c1ccc(/C=N/NC(=O)c2cc(-c3cccs3)nc3ccccc23)cc1	-0.5	.	8.0	3.5	-1.1	6.4	i	8.1	-4.2	.
O=C(NCCN1CCOCC1)c1ccc(/C=C2\Sc3ccccc3N(Cc3ccc(F)cc3)C2=O)cc1	1.1	0.661	-42.3	-53.5	9.4	1.7	i	-2.4	10.9	-18.0
COC(=O)/C=C1\S/C(=N/NC(=O)c2ccccc2)NC1=O	-0.8	0.683	.	.	.	.	.	-4.1	-12.1	14.8
O=C(NCCCn1ccnc1)c1ccc(S(=O)(=O)N2CCOCC2)cc1	-0.6	0.704	10.1	10.5	3.5	-0.9	i	-6.6	-7.5	3.7
Following part:
SMILES	Bfl-1 A1 inh	Ecoli growth	rRNA inh HTS	rRNA inh HTS OD600	rRNA inh HTS RFP	AF4-AF9 inh	FGF22 binding	Beta cell apopt	T cruzi repl	UCH37 inh
CC(=O)CCc1ccc(OCCCOc2cccc3cccnc23)cc1	0.1	0.665	-24.6	-45.8	3.5	-1.4	i	7.2	7.5	-0.1
Cc1sc2ncnc(NCC(O)c3ccccc3)c2c1C (stereo not given)	-2.7	0.671	4.4	9.2	-0.4	-0.1	i	87.5*	8.9	2.1
Cc1c(CNCCc2ccccc2Cl)c(C(=O)O)c(C)n1-c1ccccc1	0.7	0.656	2.2	1.0	2.4	3.3	i	-9.3	14.3	4.2
Cn1ccnc1SCCNC(=O)CCc1nnc(CCCCc2ccccc2)o1	-0.2	0.702	-3.1	-7.0	-15.3	4.0	i	-1.6	6.2	1.6
COc1ccc(-c2nc(CN3CCCCC3c3nccn3C)c(C)o2)c(C)c1C (stereo not given)	1.4	0.678	-33.5*	-18.5*	4.4*	13.7	i	20.6	11.9	3.7
O=C(NCc1ccccn1)c1ccccc1OCc1ccc(F)cc1	0.9	0.671	-3.5	5.3	-1.3	-9.7	i	-12.5	4.8	2.5
COc1ccc(NC(=S)N2CCC(NC(=O)c3cccc(C)c3)CC2)cc1	-0.1	0.686	2.6	-3.4	-0.9	2.0	i	7.9	6.5	-0.1
COc1cc(NC(=O)c2cc(S(=O)(=O)N3CCCCC3)c[nH]2)cc(OC)c1	0.5	0.73	7.6	8.5	-2.9	1.4	i	-1.3	-6.0	-0.8
COc1ccc(C2/C=C\CN(C(=O)Nc3ccc(C(F)(F)F)cc3)CC(=O)N2Cc2ccc(F)cc2)cc1 (stereo not given)	0.5	.	.	.	.	.	.	80.6*	34.0	0.5
COC(=O)c1c(C)[nH]c(C(=O)OC(C)C(=O)N(C)C2CCCCC2)c1C (stereo not given)	-2.2	0.648	-15.5	-18.9	-2.5	4.8	i	.	-2.9	-4.8
COc1ccc(NC(=O)CSc2nccn2-c2ccccc2)cc1	0.1	0.748	.	.	.	.	.	-5.1	-2.2	2.3
N#CCOC(=O)/C=C/c1ccc2c(c1)OCO2	-1.2	0.662	-6.4	-9.0	-7.1	-1.4	i	-8.7	-14.0	-36.5
Cc1cc(C)c(NC(=O)/C=C\C(=O)O)c(Cl)c1	0.6	0.692	.	.	.	.	.	-1.8	-9.6	1.0
O=C1CC(/C=C/c2cccnc2)=Nc2ccccc2N1	1.3	0.671	21.0	5.9	-4.0	0.4	i	-7.1	-7.4	1.7

Assay outcomes: PubChem BioAssay, several laboratories
